PrP 5UTR inh = suppresses PrP 5' UTR mRNA reporter expression. 0.35% of 340,000 active. cell-based PrP 5' UTR mRNA reporter, plate reader. inhibition, % (concentration not given with the values). AID 488862;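 active = every replicate at 50% or more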;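 also: 0 = median of the neutral control wells; tested in H4 reporter cells; numbers are from one replicate; inactives centre near -14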
ugtP null kill = compounds lethal to S. aureus RN4220 ugtP deletion mutant | AID 1259309 | OD600 growth, 16 h; some inactives read as strong as hits | growth inhibition, % (test concentration not listed) | 0.54% of 330,000 active;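 active = z-score under -3 and OD600 up to 0.15 on both plates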;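 also: plate controls were untreated wells for no effect and antibiotic for full effect; wells of about 80 µL received 100 nL stock; the first replicate is given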
RN4220 kill = S. aureus RN4220 growth inhibition; OD600, 16 h; inhibition, % (no concentration beside the values); 0.33% of 330,000 active;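 active = z-score of -3 or lower and OD600 up to 0.18 on both plates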;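 also: plate controls were untreated cells for no effect and reference antibiotic for full effect; stock transfer was 100 nL into about 80 µL; one replicate is shown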
Bead autofluor = compound fluorescence in toxin protease inhibitor counterscreen; 3.1% of 360,000 active; AID 624483; compound autofluorescence counterscreen, microsphere flow cytometry; hits give high values; fluorescence intensity (concentration not given with the values);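 active = at least 3 SD above the mean of all compounds, about 16000 in these data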;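 also: 100 nL of 1 mM stock went into each well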
BJeLR lethal = kills HRASV12-expressing BJeLR cells; BJeLR (HRASV12) viability, CellTiter-Glo ATP luminescence, 48 h; reference of the scale not given here; inhibition, % (no concentration beside the values); 0.17% of 300,000 active; AID 1554;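 active = replicate mean above 50%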;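 also: 50 nL library stock added to about 25 µL; numbers are from one replicate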
Mtb hypoxia inh = Mtb hypoxia fluorescent reporter inhibition. M. tuberculosis hypoxia-regulated fluorescent reporter, fluorescence. fluorescence inhibition, % (no concentration beside the values). 0.1% of 300,000 active;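 active = 35 to 45% if threefold the growth effect, above 45% if 1.5-fold the growth effect; inactive = the rest, general growth blockers included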;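 also: wells of about 50 µL received 100 nL stock; 0% = vehicle wells and 100% = reference inhibitor wells; whole bacteria with a GFP reporter of the hypoxia response; strong numbers were not always called active; many hits fall short of the cut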
Mtb hypoxia inh growth = second read-out of Mtb hypoxia inh, no call of its own (marks repeat the call); growth inhibition, %; measured here: M. tuberculosis growth (absorbance);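 0% = vehicle and 100% = reference antibiotic; read after six days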
An asterisk follows results filed as active; / = not tested or not shown.

SMILES | PrP 5UTR inh | ugtP null kill | RN4220 kill | Bead autofluor | BJeLR lethal | Mtb hypoxia inh | Mtb hypoxia inh growth
COc1ccc(NC(=O)C2CC(=O)N/C(=N/N=Cc3ccccc3)S2)cc1 (stereo not given) | / | -2 | 7.2 | / | / | 1 | -4
CN(C)CCN(C(=O)c1ccc(Br)s1)c1nc2cc3c(cc2s1)OCCO3 | -30 | 10 | 2.6 | 3528 | -9 | 9 | 1
C/C(=C/c1ccccc1)C(=O)N1CCN(c2ccc(F)cc2)CC1 | -29 | 12 | 4.3 | 3550 | -2 | 5 | 4
CC(C)(C)n1ncc2c(=O)n(Cc3cccc(Cl)c3)cnc21 | -36 | 4 | 1.6 | 4469 | -4 | -5 | 12
Cc1[nH]c2ccc(O)cc2c1CCN | -11 | 1 | 8.5 | 5921 | / | -4 | 4
Cc1ccccc1-c1nnc(-c2cccs2)o1 | / | -1 | 7.3 | 4969 | 17 | 26 | 12
Clc1cccc(Cl)c1COn1nnc2ccccc21 | -51 | -5 | 10 | 11234 | -5 | 8 | 6
O=S1(=O)C=C(Sc2nnc(-c3ccccc3)o2)c2ccccc21 | -29 | 91* | 93* | 8256 | 43 | / | /
Cc1ccc(NC(=S)NN=Cc2cccn2Cc2ccccc2F)cc1 | / | -6 | 1.6 | / | / | 7 | 2
CCOC(=O)c1cnc2nc(Cc3ccccc3)[nH]n2c1=O | -21 | 4 | -3.1 | 2794 | 6 | / | /
COc1ccc(NC2SC(=O)N(CC(=O)O)C2=O)cc1 (stereo not given) | -35 | 5 | 1.0 | 6509 | -3 | 8 | 5
N#C[C@@H]1N(Cc2ccccc2)C(=O)[C@H]2CC3C=CC21O3 (stereo not given in full) | -2 | / | / | 3814 | 2 | / | /
Cc1cc(NCCO)nc(-n2nc(C)cc2C)n1 | 3 | -1 | -0.4 | 2565 | 4 | / | /
CC(NC(=O)c1cc(S(=O)(=O)N2CCOCC2)cn1C)c1ccccc1 (stereo not given) | -16 | 6 | -14 | 4111 | -1 | 8 | 6
Cc1cc(C)n(S(=O)(=O)c2ccc3ccccc3c2)n1 | -16 | -2 | 8.0 | 8158 | 4 | 6 | 14
Cc1[nH][nH]c(=O)c1C(c1ccc(-c2cccc(C(=O)O)c2)o1)c1c(C)[nH][nH]c1=O | -19 | 2 | 1.0 | 3495 | 2 | 2 | 7
CC(C)Cc1nc(C#N)c(N2CCC(C(N)=O)CC2)o1 | -17 | 1 | 2.2 | 2087 | 3 | 2 | 3
CC1CC1C(=O)OCC(=O)Nc1ncc(Cl)cc1Cl (stereo not given) | -18 | 6 | 4.2 | / | -10 | 1 | 7
O=C(COC(=O)c1cccc(S(=O)(=O)N2CCOCC2)c1)Nc1ncc(Cl)cc1Cl | -19 | -3 | 10 | 6107 | / | -1 | 10
[O-]c1n[n+](-c2ccc(Cl)cc2)cc2ccccc12 | -10 | -3 | 2.8 | 4766 | 0 | 7 | -1
CCOc1ccc(N(CC(=O)Nc2cccc(C)c2)S(C)(=O)=O)cc1 | -27 | 2 | -0.3 | 3136 | -8 | -8 | -8
O=C(Cc1nc2ccccc2[nH]1)c1ccc([N+](=O)[O-])cc1 | -95 | 0 | 0.1 | 4568 | 4 | -3 | 8
O=C(C[n+]1cccc(CNC(=O)c2ccc(OC(F)F)cc2)c1)c1ccccc1 | -6 | 6 | -1.3 | 2053 | 5 | 11 | 6
O=C(O)c1cccc(C(=O)O)c1Br | -29 | -4 | -12 | 3911 | -4 | 13 | 3
Cc1ccc(OCC(=O)Oc2ccccc2[N+](=O)[O-])cc1 | -6 | 5 | 0.7 | 2731 | -6 | -1 | -8

Reformatted with two lines to a compound: 13 of the compounds above.
Below each SMILES: PrP 5UTR inh	ugtP null kill	RN4220 kill	Bead autofluor	BJeLR lethal	Mtb hypoxia inh	Mtb hypoxia inh growth
Cc1cc(NCCO)nc(-n2nc(C)cc2C)n1
→ 3	-1	-0.4	2565	4	/	/
CC(NC(=O)c1cc(S(=O)(=O)N2CCOCC2)cn1C)c1ccccc1 (stereo not given)
→ -16	6	-14	4111	-1	8	6
Cc1cc(C)n(S(=O)(=O)c2ccc3ccccc3c2)n1
→ -16	-2	8.0	8158	4	6	14
Cc1[nH][nH]c(=O)c1C(c1ccc(-c2cccc(C(=O)O)c2)o1)c1c(C)[nH][nH]c1=O
→ -19	2	1.0	3495	2	2	7
CC(C)Cc1nc(C#N)c(N2CCC(C(N)=O)CC2)o1
→ -17	1	2.2	2087	3	2	3
CC1CC1C(=O)OCC(=O)Nc1ncc(Cl)cc1Cl (stereo not given)
→ -18	6	4.2	/	-10	1	7
O=C(COC(=O)c1cccc(S(=O)(=O)N2CCOCC2)c1)Nc1ncc(Cl)cc1Cl
→ -19	-3	10	6107	/	-1	10
[O-]c1n[n+](-c2ccc(Cl)cc2)cc2ccccc12
→ -10	-3	2.8	4766	0	7	-1
CCOc1ccc(N(CC(=O)Nc2cccc(C)c2)S(C)(=O)=O)cc1
→ -27	2	-0.3	3136	-8	-8	-8
O=C(Cc1nc2ccccc2[nH]1)c1ccc([N+](=O)[O-])cc1
→ -95	0	0.1	4568	4	-3	8
O=C(C[n+]1cccc(CNC(=O)c2ccc(OC(F)F)cc2)c1)c1ccccc1
→ -6	6	-1.3	2053	5	11	6
O=C(O)c1cccc(C(=O)O)c1Br
→ -29	-4	-12	3911	-4	13	3
Cc1ccc(OCC(=O)Oc2ccccc2[N+](=O)[O-])cc1
→ -6	5	0.7	2731	-6	-1	-8

Later entries.
SMILES | PrP 5UTR inh | ugtP null kill | RN4220 kill | Bead autofluor | BJeLR lethal | Mtb hypoxia inh | Mtb hypoxia inh growth
COc1ccc(C(=O)NNC(=O)C(=O)Nc2ccc(C)c(Cl)c2)cc1 | -22 | 6 | -1.8 | 4308 | 0 | -1 | 8
CCOc1ccc(NC(=O)COc2coc(CN3CCc4ccccc4C3)cc2=O)cc1 | -14 | 14 | 5.2 | 4653 | -1 | 9 | -7
CC(C)C(=O)Nc1ccc2c(c1)nc(CCN1CCN(C)CC1)n2C | -64 | 6 | 0.8 | 24142* | -16 | 8 | 0
CC(C)NS(=O)(=O)c1ccc(NC(=O)c2cccnc2)cc1 | -3 | 6 | 0.9 | 4288 | 3 | 6 | 3
O=C1NC2(O)C(=O)c3ccccc3C2(O)N1 (stereo not given) | 8 | 2 | 1.6 | 4457 | 3 | -11 | 0
NC(=O)C1(N2CCCCC2)CCN(C2CC(=O)N(CCc3ccccc3)C2=O)CC1 (stereo not given) | -7 | -1 | 8.1 | 3466 | 1 | / | /
CN1CCN(c2oc(-c3ccc([N+](=O)[O-])cc3)nc2C#N)CC1 | -4 | 11 | 1.1 | / | -2 | 2 | 3
CCOC(=O)CCC(NC(=O)c1cncc(O)c1)C(=O)OCC (stereo not given) | -9 | 8 | 4.6 | 4241 | -7 | 9 | 7
COc1cc2[nH]c(=O)n(CCC(=O)N3CCC(N4CCCCC4)CC3)c(=O)c2cc1OC | -20 | -4 | 6.5 | 8544 | -4 | 16 | 6
Cc1noc(C)c1C(=O)Nc1cc(Cl)ccc1N1CCOCC1 | -16 | -1 | 2.3 | 2894 | / | 4 | -3
S=C(Cc1ccccc1)NCCc1ccccc1 | -18 | -3 | -0.2 | 2944 | -1 | 5 | 10
COc1ccc2c(c1)C(=O)N1C3c4cc(Cl)ccc4OCC3C(c3ccccc3)[C@]1(C)C(=O)N2 (stereo not given in full) | / | -22 | -4.7 | / | / | -10 | 7
CC(=O)C12CC(C)=C(C)CC1CC1C3CCC4=CC(=O)CCC4(C)C3CCC12C (stereo not given) | / | 34 | 6.4 | 6338 | 4 | 6 | 1
CCCNC(=O)C1(CC2CC(c3ccccc3)=NO2)CCN(C(=O)C2(C)CC2)CC1 (stereo not given) | -10 | -5 | -2.5 | 3440 | 2 | 1 | 2
Cc1cccc(N2CCN(C(=O)c3ccc(CS(=O)Cc4ccc(Cl)cc4)o3)CC2)c1C (stereo not given) | -6 | 69 | -3.1 | 6541 | -6 | 11 | -1
COc1ccc(C(=O)OCC(=O)c2ccc(C)c(S(=O)(=O)N3CCOCC3)c2)cc1OC | -37 | -13 | -5.0 | 4882 | -2 | -8 | -3
CC1=C(C(=O)Nc2ccccc2C)C(c2ccc(C)o2)C2=C(CCCC2=O)N1 (stereo not given) | -1 | -6 | -3.2 | 5830 | 6 | -12 | -14
CC(C(=O)NCC1CCCCC1)N(C)CC(=O)Nc1ccc(N2CCOCC2)cc1 (stereo not given) | -14 | 1 | 1.3 | 4141 | -1 | 5 | -3
C[C@H](CO)N1C[C@H](C)[C@@H](CN(C)C(=O)Nc2ccc3c(c2)OCO3)Oc2c(cccc2N(C)C)C1=O | -35 | 7 | -0.3 | 3436 | / | 1 | -5
Cn1c(=O)c2c(nc(SCc3ccc(F)cc3)n2C)n(C)c1=O | -49 | 11 | -0.5 | 3537 | -1 | 9 | 1
Cc1csc(=O)n1CC(=O)OC(C)C(=O)Nc1ccc(N(C)C)cc1 (stereo not given) | -4 | -1 | -0.3 | 6534 | / | -7 | -4
CN(Cc1ccccc1)C(=O)CCS(=O)(=O)c1ccc2c(c1)n(C)c(=O)c(=O)n2C | -14 | 3 | 0.8 | 4219 | 1 | / | /
CC(Sc1ccsc1[N+](=O)[O-])C(=O)NCCc1ccc(Cl)cc1 (stereo not given) | 35 | -16 | 3.7 | 7054 | 2 | 0 | -6
COc1ccc(-c2ccnc3c(C#N)cnn23)cc1 | -11 | 2 | 2.0 | 3329 | 1 | 3 | 0
Cc1ccc(S(=O)(=O)N(C)C)cc1NC(=O)COC(=O)c1ccc2c(c1)OCO2 | -18 | 7 | 2.6 | 1976 | 3 | 4 | 5

Continued; the last two above are carried over.
SMILES | PrP 5UTR inh | ugtP null kill | RN4220 kill | Bead autofluor | BJeLR lethal | Mtb hypoxia inh | Mtb hypoxia inh growth
COc1ccc(-c2ccnc3c(C#N)cnn23)cc1 | -11 | 2 | 2.0 | 3329 | 1 | 3 | 0
Cc1ccc(S(=O)(=O)N(C)C)cc1NC(=O)COC(=O)c1ccc2c(c1)OCO2 | -18 | 7 | 2.6 | 1976 | 3 | 4 | 5
O=C(NNC(=O)c1ccncc1)Nc1cccc(C(F)(F)F)c1 | -30 | 1 | 2.6 | 6374 | 3 | 3 | 2
CC1CN(C(C)CO)C(=O)c2cc(NC(=O)C3CC3)ccc2OC1CN(C)C (stereo not given) | / | 2 | -0.8 | / | / | 1 | 1
COc1ccc(NC(=O)CSc2nc3c(cc2C#N)CN(C)CC3)cc1 | -8 | 7 | -1.2 | 1714 | 7 | 18 | 8
COc1ccc(Cn2c(CCC(=O)NCc3ccco3)nc3cccnc32)cc1 | 5 | 1 | 1.7 | 22452* | -6 | -9 | 5
Cc1cccc(NC(=O)c2cccc(N3C(=O)C4C5CCC(C5)C4C3=O)c2)c1C (stereo not given) | -3 | 4 | 2.2 | 18603* | 0 | -1 | 8
COc1cccc(CNc2ccc(F)c([N+](=O)[O-])c2)c1O | -19 | -1 | 4.2 | 3485 | 13 | 1 | 4
CC(C)CC(=NNC(=O)c1ccncc1)c1cc(Cl)ccc1O | 30 | 72 | 16 | 2967 | / | 9 | 4
CCOC(=O)c1c(C)c(C(=O)NCc2ccccc2OC)c(C)n1C | -19 | -1 | 2.4 | 22066* | -4 | -11 | 3
O=C(Nc1ccccc1)N1CCc2ccccc2C1 | -48 | 5 | 2.8 | 4568 | 0 | / | /
Cc1ccc(NC(=O)CCN2CCN(CCO)CC2)cc1Br | -8 | 8 | 9.4 | 4462 | -2 | / | /
Cc1ccc(CCN=c2c([N+](=O)[O-])nn(-c3ccccc3)n2O)cc1 | -52 | 11 | 8.9 | 4067 | 6 | 13 | 16
Cc1ccc(C(=O)NCC(=O)OCC(=O)N2CC(C)OC(C)C2)cc1 (stereo not given) | -26 | 2 | 0.9 | 5338 | 9 | -6 | -5
N#Cc1ccc(NC(=O)c2nc(-c3ccccc3)n(-c3ccccc3)n2)cc1 | -11 | -14 | 7.6 | 3874 | 4 | 9 | 9
COc1ccc2[nH]c(CN3CCC(n4nccc4NC(=O)C4CC4)CC3)c(C)c2c1 | -10 | 6 | -1.0 | 4565 | -14 | 8 | -5
Cc1c(C(=O)Nc2cccc(S(=O)(=O)N3CCCC3)c2)oc2ccccc12 | -16 | 13 | 3.8 | 4007 | 5 | -3 | -2
COc1ccc(/C=C2/C(=O)N(c3ccccc3)N=C2C)c(OC)c1 | -33 | 2 | -1.1 | 3486 | -7 | -6 | -8

Assay outcomes: PubChem, several laboratories
